HNF4A DNA FP – change in binding of human HNF4 alpha to DNA | activity change, % at 10 µM | 360,000 tested, 0.3% active | AID 1224865 | HNF4a-FITC DNA binding, fluorescence polarization, 1 h; in the data active = activity change above about 30%, passing the limit was not always enough;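 also: controls were the assay level and a saturating level of protein; the project sought stronger binding though the title names inhibitors; some compounds called inactive have numbers as strong as hits; positive values seem to mean higher polarization but the record does not say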
RanGTP-Imp inh – disruptors of Ran-importin-beta complex formation – biochemical, FRET, CFP-Ran, YFP-importin-beta, homogeneous, primary screen; cell-free CFP-Ran/YFP-importin-beta FRET ratio; inhibition, % (no concentration beside the values); 300,000 tested, 1.1% active; AID 2216;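 active = most replicates above 15%; inconclusive = exactly half above 15%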;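 also: 0% = DMSO wells and 100% = Ran loaded with GDP instead of GTP; wells of about 40 µL received 100 nL stock; the first replicate is given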
MLL AF4-AF9 inh – MLL-AF4/AF9 protein interaction inhibition. AlphaScreen, biotin-AF4 peptide binding to FLAG-AF9. inhibition, % at 10 µM. 350,000 tested, 0.47% active. AID 651704;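 active = every replicate reaching a set inhibition limit, whatever the replicate mean, cut at about 25% in these data; inconclusive = mean inhibition reaches that limit but some replicates miss it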;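 also: 0% = plate neutral control median and 100% = total signal loss; the record names both 10 and 1 µM as test concentration; the first replicate is given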
Target sequence (P42568 whole entry, looked up): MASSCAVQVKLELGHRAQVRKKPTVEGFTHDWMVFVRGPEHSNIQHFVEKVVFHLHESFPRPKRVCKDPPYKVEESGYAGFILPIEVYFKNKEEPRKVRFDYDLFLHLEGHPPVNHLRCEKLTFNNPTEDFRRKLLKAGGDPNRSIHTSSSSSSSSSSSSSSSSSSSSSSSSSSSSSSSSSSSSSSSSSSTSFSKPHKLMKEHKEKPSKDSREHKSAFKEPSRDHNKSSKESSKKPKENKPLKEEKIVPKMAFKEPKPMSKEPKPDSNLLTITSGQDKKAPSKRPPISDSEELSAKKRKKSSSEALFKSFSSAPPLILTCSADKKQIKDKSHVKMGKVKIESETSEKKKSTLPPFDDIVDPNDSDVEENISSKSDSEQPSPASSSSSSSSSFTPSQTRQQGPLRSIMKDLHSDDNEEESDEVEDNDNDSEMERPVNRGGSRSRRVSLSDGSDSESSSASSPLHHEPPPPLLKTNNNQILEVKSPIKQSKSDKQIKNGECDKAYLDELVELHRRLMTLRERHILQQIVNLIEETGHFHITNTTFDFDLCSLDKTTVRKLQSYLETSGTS
Ecoli growth – inhibitors of Escherichia coli growth | OD600, 23 h; hits give low values | OD600 absorbance (no concentration beside the values) | 330,000 tested, 0.21% active | AID 1053175;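 active = OD600 absorbance below the run mean of sample wells minus 3.6 SD, in any replicate, cut at about 0.56 in these data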;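 also: stock transfer was 300 nL into about 60 µL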
FGF22 binding – shifts melting point of recombinant human FGF22; recombinant FGF22 thermal shift, SYPRO orange fluorescence; percent of sucrose octasulfate shift, DMSO zero; Q9HCT0; calls only at 9.99 µM; 340,000 tested, 1.5% active;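 active = melting point raised past a set limit in the mean and every replicate; inconclusive = no clear call; three in four hits are not shown here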
Target sequence (Q9HCT0 whole entry, looked up): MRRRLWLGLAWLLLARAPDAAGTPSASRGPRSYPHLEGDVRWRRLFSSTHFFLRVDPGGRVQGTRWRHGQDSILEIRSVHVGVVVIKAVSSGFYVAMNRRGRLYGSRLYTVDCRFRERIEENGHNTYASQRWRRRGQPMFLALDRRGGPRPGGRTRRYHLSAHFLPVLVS
UCH37 DUB inh – inhibitors of human deubiquitinating enzyme UCH37. inhibition, % (concentration not given with the values). AID 588478. purified proteasome/UCH37, Ub-AMC cleavage fluorescence. 330,000 tested, 0.33% active. Q9Y5K5;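 active = mean of two replicates above 20%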;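 also: 0% = compound-free wells with enzyme and 100% = wells lacking proteasome; stock transfer was 100 nL into about 20 µL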
Target sequence (Q9Y5K5 whole entry, looked up): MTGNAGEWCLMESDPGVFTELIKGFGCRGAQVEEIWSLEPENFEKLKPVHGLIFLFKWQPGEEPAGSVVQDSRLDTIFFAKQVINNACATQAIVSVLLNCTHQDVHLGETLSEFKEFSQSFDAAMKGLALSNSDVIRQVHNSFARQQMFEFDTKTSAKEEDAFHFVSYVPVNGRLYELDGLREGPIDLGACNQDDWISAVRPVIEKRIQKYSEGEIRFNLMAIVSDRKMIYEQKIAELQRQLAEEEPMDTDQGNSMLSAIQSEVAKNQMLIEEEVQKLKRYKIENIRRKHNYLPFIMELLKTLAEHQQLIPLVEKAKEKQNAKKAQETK
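Signal – fluorescence, ex 355 nm, em 460 nm · System – Proteasome-bound UCH37 · Input – 0.15 nM proteasome as dispensed · Timing – 30 min preincubation with enzyme, 25 min cleavage at room temperature · Read-out basis – percent inhibition of cleavage signal versus uninhibited and no-proteasome wells · Medium – Tris-HCl pH 7.4 with ATP-MgCl2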
Vif TR-FRET – HIV-1 Vif–A3G interaction blockers – biochemical, TR-FRET, GST-Vif 1-94, biotin-A3G peptide, dose response retest, primary screen (AID 1117319); inhibition, %, or IC50 in µM where a hit was titrated; 260,000 tested, 0.57% active; TR-FRET GST-Vif / biotin-A3G peptide binding; higher % means a stronger effect; test concentration not given here; strong numbers were not always called active;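 active = above the screen mean plus three standard deviations and confirmed in dose response; inconclusive = results disagree or hit not tested in dose response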;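 also: Vif residues 1-94 fused to GST binding biotinylated APOBEC3G peptide 110-148; 0% = full assay without inhibitor and 100% = GST in place of GST-Vif; retest series ran down from 100 µM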
Active calls of the source: *; i = inactive; ? = inconclusive; . = not tested or not shown; & = joins results of further samples. Some of the compounds tested; the hit share may differ from the screen's.

SMILES	HNF4A DNA FP	RanGTP-Imp inh	MLL AF4-AF9 inh	Ecoli growth	FGF22 binding	UCH37 DUB inh	Vif TR-FRET
COc1ccc(NC(=O)CSc2nnc(C)n2C2CC2)cc1S(=O)(=O)N1CCOCC1	3.1	.	2.2	0.68	i	0.4	13.0%
O=C(CSc1ccc2nnc(-c3cccnc3)n2n1)N1CCOCC1	-1.9	4.5	17.3	0.725	i	-18.0	?
CNC(=O)c1ccc(-c2cc(C(F)(F)F)nn2C)s1	-0.2	1.0	-0.1	0.625	i	2.2	1.6%
Cc1cccc(OCC(=O)NC(Cc2c[nH]c3ccccc23)C(=O)O)c1C (stereo not given)	1.9	8.4	-0.9	0.674	i	2.5	4.1%
Cc1ccc(-c2cc(C(=O)N3CCc4ccccc4C3)no2)cc1	-1.3	-1.6	0.3	0.724	i	1.3	-4.0%
CN(C)S(=O)(=O)c1cccc(C(=O)OCC(=O)NC2CCCc3ccccc32)c1 (stereo not given)	2.8	-2.4	-3.7	0.643	i	2.1	14.4%
CC(CS(=O)(=O)c1ccc2c(c1)NC(=O)CS2)C(=O)NCc1ccccc1Cl (stereo not given)	-8.9	2.9	-13.9	0.585	i	0.9	.
Cc1c(C(=O)Nn2cnnc2)oc2ccccc12	1.6	-0.8	.	0.746	.	4.2	2.1%
CCOC(=O)C1=C(N)OC2=C(C(=O)CC(C)(C)C2)C1c1ccccc1OC (stereo not given)	4.7	0.2	2.0	0.693	i	2.9	6.0%
COc1ccc(C)cc1NC(=O)CSc1nnc(-c2ccc(C)cc2)o1	3.5	-0.9	-3.0	0.756	i	3.0	25.3%
CCN(CC)S(=O)(=O)c1ccc(N2CCOCC2)c(NCC(=O)Nc2ccc(F)cc2)c1	-1.3	-4.2	0.5	0.679	i	-0.1	4.6%
Cc1ccc2c(Cl)c(C(=O)NCCc3ccccc3)sc2c1	-2.1	0.9	.	0.689	.	3.2	-54.1%
O=C(CN1C(=O)C2CC=CCC2C1=O)OCC(=O)c1ccc(Cl)c([N+](=O)[O-])c1 (stereo not given)	-1.1	3.9	0.2	0.713	i	3.9	.
Cc1cc(=O)oc2cc(OCC(=O)OCC(=O)NC(=O)NC(C)C)ccc12	-5.5	-0.8	-1.7	0.593	i	-39.1	1.0%
Cc1ccc(NC(=O)Nc2nnc(CSCCOc3ccc(Cl)cc3)s2)cc1	9.3	0.6	-6.1	0.702	i	0.2	4.2%
O=C(NCCN1CCOCC1)c1cccc(NS(=O)(=O)c2ccc(Br)cc2)c1	0.3	2.6	-23.8	0.681	i	0.2	-3.7%
COc1cccc(/C=C(\C#N)c2nc3ccccc3[nH]2)c1OCC(=O)O	12.6	8.4	-2.3	0.666	i	3.0	.
Cc1ccc(S(=O)(=O)Nc2cccc(/C=C/C(=O)O)c2)cc1	-0.4	4.9	.	0.673	.	2.0	1.1%
O=C(O)CCCNC(=O)c1cncc(Br)c1	-1.7	-2.2	.	0.701	.	3.0	-4.2%
Cc1ccsc1-c1n[nH]c(=S)n1C1CCCCC1	-1.6	-3.0	4.6	0.695	i	0.0	-0.6%
Nc1nc(-c2cccc(F)c2)cs1	-2.1	?	-2.4	0.63	i	-1.2	-3.0%
Cc1c(C(=O)N(Cc2cccs2)C2CCS(=O)(=O)C2)oc2ccccc12 (stereo not given)	0.1	-1.3	.	0.742	.	4.6	5.7%
Cc1ccc(N(C(C)C(=O)O)S(=O)(=O)c2cccnc2)cc1 (stereo not given)	4.1	1.2	-1.6	0.764	i	1.6	2.6%
C[C@H](CO)N1C[C@H](C)[C@@H](CN(C)C(=O)Nc2ccc(C(F)(F)F)cc2)Oc2c(cccc2N(C)C)C1=O	-2.2	.	-0.2&-1.1	.	i	1.0	.
CCOC(=O)C1=C(CNC2CCCCC2)NC(=O)NC1c1cc(C)ccc1C (stereo not given)	-0.2	0.6	.	0.769	.	1.9	17.1%

5 of these compounds in another layout.
HNF4A DNA FP | RanGTP-Imp inh | MLL AF4-AF9 inh | Ecoli growth | FGF22 binding | UCH37 DUB inh | Vif TR-FRET | mol
-5.5 | -0.8 | -1.7 | 0.593 | i | -39.1 | 1.0% | Cc1cc(=O)oc2cc(OCC(=O)OCC(=O)NC(=O)NC(C)C)ccc12
3.1 | . | 2.2 | 0.68 | i | 0.4 | 13.0% | COc1ccc(NC(=O)CSc2nnc(C)n2C2CC2)cc1S(=O)(=O)N1CCOCC1
-8.9 | 2.9 | -13.9 | 0.585 | i | 0.9 | . | CC(CS(=O)(=O)c1ccc2c(c1)NC(=O)CS2)C(=O)NCc1ccccc1Cl (stereo not given)
-1.6 | -3.0 | 4.6 | 0.695 | i | 0.0 | -0.6% | Cc1ccsc1-c1n[nH]c(=S)n1C1CCCCC1
-1.1 | 3.9 | 0.2 | 0.713 | i | 3.9 | . | O=C(CN1C(=O)C2CC=CCC2C1=O)OCC(=O)c1ccc(Cl)c([N+](=O)[O-])c1 (stereo not given)

The listing continues:
SMILES	HNF4A DNA FP	RanGTP-Imp inh	MLL AF4-AF9 inh	Ecoli growth	FGF22 binding	UCH37 DUB inh	Vif TR-FRET
CCn1c(/C=C/N(C(C)=O)c2ccccc2)[n+](CC)c2ccc(Cl)cc21	1.4	-4.2	-0.4	0.688	i	3.1	-3.3%
CCN(CC)S(=O)(=O)c1cc(C(=O)N(C)CC(=O)Nc2ccc(Cl)cc2)ccc1Cl	2.4	1.4	8.0	0.647	i	1.5	6.1%
CCN=C1Sc2nc3ccc(OCC)cc3cc2CN1CCOC	0.6	3.5	.	0.692	.	-2.8	-0.5%
CCOc1cccc(OCCCCN2CCOCC2)c1	0.0	1.0	.	0.678	.	2.8	-3.8%
CCOc1cc(/C=C2/NC(=O)N(CC(=O)OC)C2=O)ccc1OC	0.0	-2.4	-1.6	0.699	i	6.4	8.7%
S=C(NCc1ccccc1)Nc1ccc2ccccc2c1	1.7	.	-2.3	0.611	i	4.4	.
Cc1cc(NS(=O)(=O)c2ccc(NC(=S)NC(=O)/C=C/c3ccccc3)cc2)no1	1.4	2.5	1.4	0.704	i	5.9	.
C[C@H](CO)N1C[C@H](C)[C@@H](CN(C)C(=O)NC2CCCCC2)Oc2c(NC(=O)Nc3ccc(C(F)(F)F)cc3)cccc2C1=O	4.7	.	1.1&2.0	.	i	4.9	.
CCOC(=O)C(=CNCC(=O)OC)C(=O)OCC	2.3	-2.0	.	0.761	.	2.8	1.3%
C[C@H]1CN=C(N(C)C)N1CC1CCC(C(C)(C)C)CC1 (stereo not given in full)	-0.4	.	5.7	.	i	0.8	.
N#Cc1cnn2c3c(cnc12)C(=O)N1CCc2ccccc2C1C3 (stereo not given)	-0.2	?	-3.4	0.712	i	-426.2	-4.3%
CC(=O)N1CCCc2cc(S(=O)(=O)Nc3ccc(C)cc3C)ccc21	-1.2	0.0	-5.5	0.65	i	-0.2	12.2%
COc1cc2ccccc2cc1C(=O)NC(=S)Nc1cccc(C(=O)O)c1C	-3.0	-2.4	-5.4	0.672	i	-11.9	0.5%
COc1ccc(CCNC(=O)CNCCc2ccc(F)cc2)cc1	3.3	-0.6	-0.8	0.6	i	1.8	-13.5%
CN(C)c1ccc(/C=C2\SC(=O)N(CCc3nnc(N)s3)C2=O)cc1	97.2*	-30.6	-7.7	0.712	.	2.2	5.5%
CCCN1C2CCCC1CC(NC(=O)c1ccccc1)C2 (stereo not given)	-0.9	0.4	.	0.685	.	1.4	-3.7%
O=C1NC[C@H](CCCCN2C[C@H](Cc3ccccc3)N(CC3CCCCC3)C(=O)C2=O)N(CCC2CCCCC2)C1=O	4.2	.	-2.3	.	i	.	.
CC1CCN(CCC(=O)Nc2ccccc2)CC1	-2.0	4.8	0.4	0.699	i	2.6	.
Cc1ccc(S(=O)(=O)N2CCN(CC(=O)N(CC(C)C)c3c(N)n(CC(C)C)c(=O)[nH]c3=O)CC2)c(C)c1	1.8	3.9	0.7	0.687	i	-2.9	-1.6%
COCc1cc(=O)[nH]c(SC)n1	-0.4	3.8	-2.8	0.677	i	1.9	-1.2%
CCOc1ccc(CCNC(=O)c2cc(-c3ccccc3)c(N3CCOCC3)s2)cc1	-0.4	-1.1	-1.0	0.725	i	2.5	-1.1%
O=C(O)C1CC=CCC1C(=O)NNc1c(Cl)cc(Cl)cc1Cl (stereo not given)	3.4	0.8	-1.3	0.658	i	5.3	1.1%
COC(=O)c1cccc(N(C(=O)c2cnccn2)C(C(=O)NCc2ccccc2)c2ccco2)c1 (stereo not given)	-0.2	0.9	-31.9	0.693	i	2.3	17.8%&1.3%
COc1ccccc1C(=O)Nc1ccncc1	3.0	-0.5	-4.8	0.682	i	-1.5	.
CC(=O)C1=C(O)C(=O)N(Cc2ccccc2)C1c1ccc(Cl)cc1 (stereo not given)	0.1	4.6	-4.2	0.68	i	4.6	-9.7%
SMILES	HNF4A DNA FP	RanGTP-Imp inh	MLL AF4-AF9 inh	Ecoli growth	FGF22 binding	UCH37 DUB inh	Vif TR-FRET
CCOC(=O)c1cn[nH]c1N	0.8	?	.	0.734	.	1.2	-4.0%
O=C(Cn1c(=O)c2cccn2c2ccccc21)NCCc1ccc(Cl)cc1	1.8	2.3	-0.9	0.679	i	-10.5	.
COc1cc(NC(=O)CSc2nc3ccccc3n2-c2ccccc2)c(C)cc1[N+](=O)[O-]	-0.3	-4.2	3.1	0.686	i	7.3	11.7%
CCOc1ccc(CCNC(=O)COC(=O)c2sccc2C)cc1OCC	1.2	.	1.1	0.678	i	4.1	1.0%
COc1ccc(-c2[nH]ncc2CN(C)CCc2c(C)n[nH]c2C)c(F)c1	-3.0	1.7	0.1	0.682	i	-3.1	5.3%
CCN(CC(=O)Nc1ccccc1C(F)(F)F)C(=O)CN1C(=O)NC2(CCCC2)C1=O	0.3	5.5	2.1	0.67	i	2.2	5.6%
CN(CC(=O)Nc1c(Cl)cccc1Cl)C(=O)CNC(=O)c1ccco1	-0.2	.	-0.2	0.7	i	-0.3	-6.8%
CCOC(=O)N1CCN(C(=O)c2cc3cc(Br)ccc3oc2=O)CC1	4.3	0.7	-2.8	0.66	i	2.8	?
COc1cc(NC(=O)Cc2ccccc2)ccc1NC(=O)Cc1ccccc1	1.3	4.7	-4.7	0.696	i	2.2	.
COCCN=c1scc(-c2cccs2)n1/N=C(\C)c1ccco1	4.3	-5.7	18.4	.	i	.	-4.5%
CCN(CC)S(=O)(=O)c1cc(OC)c(Cl)cc1Cl	1.2	3.6	2.5	0.684	i	0.8	0.8%
COc1ccc(NS(=O)(=O)c2cccc(C(=O)NNC(=O)c3ccc(Br)o3)c2)cc1	-3.2	-3.2	-0.1	0.624	.	5.4	2.0%
N#Cc1c(F)cccc1N1CCOCC1	-2.6	1.2	.	0.695	.	-11.1	2.7%
NS(=O)(=O)c1ccc(CCNC(=O)CN2CCCCCC2)cc1	2.1	-0.6	0.8	0.72	i	2.9	3.3%
COC(=O)CCCNC(=O)c1ccc(OS(=O)(=O)c2cc([N+](=O)[O-])ccc2C)cc1	1.6	0.1	-22.2	0.667	i	5.6	-2.2%
CCc1ccc(N2CC(C(=O)NC3CCCCC3C)CC2=O)cc1 (stereo not given)	-0.4	6.7	0.1	0.641	i	4.7	.
CCOC(=O)c1c(C)[nH]c(C)c1S(=O)(=O)N(C)Cc1ccco1	-0.6	-1.6	0.2	0.679	i	3.2	2.2%
C[C@@H]1C[C@@H]2OC(=O)[C@]3(C)[C@H]2[C@@H](OC3(C)O)[C@]2(C)C(=O)C=C[C@H]12 (stereo not given in full)	-0.1	1.4	-2.0	.	i	-5.6	.
Cc1c(C(=O)O)cccc1-c1ccc(C=O)o1	-4.2	0.2	.	0.709	.	6.2	.
CC1CCC2C(=O)N(c3ccc(NC4CCN(Cc5ccccc5)CC4)c([N+](=O)[O-])c3)C(=O)C2C1 (stereo not given)	3.4	-3.3	12.8	0.681	i	6.5	-5.0%
